KCNQ2 enhance: enhances the rat KCNQ2 potassium channel; CHO-K1 KCNQ2, FluxOR thallium flux fluorescence; active compounds read high; B-score at 10 µM; 310,000 tested, 0.54% active; AID 2239; O88943;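 active = fluorescence ratio B-score at least 3 SD of library B-scores, with initial fluorescence B-score within 3 SD, cut at about 5.3 in these data; same plate scores as AID 2156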;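 also: B-score of peak minus minimum over baseline fluorescence ratio after K+ and Tl+ stimulus; positive B-score means potentiation of KCNQ2 with more thallium influx and brighter signal; only the inactives scoring about 0 or higher are listed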
Target sequence (O88943 whole entry, looked up): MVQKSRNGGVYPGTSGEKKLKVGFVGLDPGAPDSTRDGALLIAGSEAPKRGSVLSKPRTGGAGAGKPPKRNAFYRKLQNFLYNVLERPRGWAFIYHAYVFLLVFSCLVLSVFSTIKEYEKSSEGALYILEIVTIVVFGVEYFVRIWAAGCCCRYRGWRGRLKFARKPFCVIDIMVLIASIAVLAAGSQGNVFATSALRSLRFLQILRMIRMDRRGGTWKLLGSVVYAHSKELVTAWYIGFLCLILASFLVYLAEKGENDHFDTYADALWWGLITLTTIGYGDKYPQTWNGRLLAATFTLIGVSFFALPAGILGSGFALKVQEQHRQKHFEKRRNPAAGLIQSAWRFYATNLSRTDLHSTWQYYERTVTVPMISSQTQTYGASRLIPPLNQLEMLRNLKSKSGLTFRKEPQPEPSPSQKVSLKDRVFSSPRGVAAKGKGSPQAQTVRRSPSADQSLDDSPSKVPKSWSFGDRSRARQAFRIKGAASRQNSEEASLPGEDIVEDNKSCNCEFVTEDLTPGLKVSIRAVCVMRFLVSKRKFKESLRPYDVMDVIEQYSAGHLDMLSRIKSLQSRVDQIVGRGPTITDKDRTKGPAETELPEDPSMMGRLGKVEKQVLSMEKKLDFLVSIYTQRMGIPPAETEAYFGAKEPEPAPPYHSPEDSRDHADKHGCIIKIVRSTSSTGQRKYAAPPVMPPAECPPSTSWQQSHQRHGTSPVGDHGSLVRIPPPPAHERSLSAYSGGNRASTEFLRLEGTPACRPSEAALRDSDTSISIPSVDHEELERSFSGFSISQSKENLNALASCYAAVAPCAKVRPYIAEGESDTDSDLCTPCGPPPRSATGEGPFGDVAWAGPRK
KCNQ2 enhance baseline: also measured in KCNQ2 enhance; calls as there; B-score; compound at 10 µM; measured here: initial fluorescence intensity artifact check;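 brightness before thallium and not channel activity; 0 = typical well and far values either way flag optical interference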
* marks the source's active call; other numbers are inactive results. Only part of the results is shown, so the mix of outcomes need not match the whole.

SMILES	KCNQ2 enhance	KCNQ2 enhance baseline
CC(=O)N(CCC1(C(C)C)CCOC(C)(C)C1)Cc1ccco1 (configuration not stated)	0.27	-1.6
Cc1ccc(S(=O)(=O)NCCC(=O)N2CCC(C(N)=O)CC2)cc1C	0.29	-0.39
Cc1cccc(C)c1NC(=O)CCCSc1nc2ccccc2s1	2.2	-0.12
COc1ccc(C(=O)NCC(=O)Nc2ccc(-c3ccccc3)cc2)cc1	0.63	1
COc1ccc(C2(NC(C)=O)CCN(C(=O)c3cccs3)CC2)cc1	0.85	-0.1
CCOC(=O)C1=C(CC)Nc2ccccc2N=C1NC(=O)c1ccc(S(=O)(=O)N(C)C)cc1	0.51	-0.26
CC(=O)OCCCNc1cc(Sc2ccc(Cl)cc2)c2nonc2c1[N+](=O)[O-]	0.09	0.28
CS(=O)(=O)N1CCC(C(=O)Nc2ccc(C(F)(F)F)cc2)CC1	0.14	1.4
CCCOc1ccc(CNC(=O)c2ccc3nc(N4CCOCC4)sc3c2)cc1	1.9	-0.02
COc1ncccc1C(=O)N1CCCC(N2CCN(c3cccc(Cl)c3)CC2)C1 (configuration not stated)	1.1	-0.02
Cc1c(CC(=O)N[C@@H](C)C(=O)O)c(=O)oc2c(C)c3occ(-c4ccccc4)c3cc12	2.4	-0.02
Cn1cc(C(=O)Nc2ccc(Cl)c(Cl)c2)cn1	0.04	-0.33
NCCCC[C@H]1CNC(=O)C(=O)N1CCCCC1CCCCC1	0.03	1.6
COc1ccc(CCNC(=S)Nc2cccc(C)c2C)cc1	0.74	0.57
CC(C)(C)NC(=S)Nc1cccc(C(F)(F)F)c1	0.11	-3.5
CSc1ncccc1C(=O)OCC(=O)NCc1ccc2c(c1)OCO2	0.47	-0.04
N#Cc1c(NC(=O)COC(=O)c2ccc(S(=O)(=O)N3CCCC3)cc2)sc2c1CCCCC2	0.02	1.2
Cc1ccc(NC(=O)C(=O)Nc2ccccn2)cc1	0.82	0.46
Cc1ccc(C(=O)NC(=S)Nn2cnnc2)cc1	0.61	-0.35
O=C(c1ccc2ccccc2c1)N1CCN(c2ccc(O)cc2)CC1	0.03	-0.66
CN(C(=O)CSc1nnc(-c2ccc(OC(F)F)cc2)n1N)C1CCS(=O)(=O)C1 (configuration not stated)	0.2	0.46
O=C(O)C1CCCN1C(=O)C12CC3CC(CC(C3)C1)C2 (configuration not stated)	1.6	-0.86
C/C(CC(=O)Nc1cc(C)ccn1)=N\NC(=O)C(=O)Nc1cccc(C)c1	5.4*	-1.2*
Cc1ccc(S(=O)(=O)N(C)Cc2ccc(C(=O)NN=C(CC(C)C)CC(C)C)cc2)cc1	0.36	0.06
CCn1c(SCC(=O)N(C)C)nc2cc(S(=O)(=O)N3CCCCC3)ccc21	0.07	-0.75

15 entries from above, ordered by length of the SMILES, largest number first:
SMILES	KCNQ2 enhance	KCNQ2 enhance baseline
Cc1c(CC(=O)N[C@@H](C)C(=O)O)c(=O)oc2c(C)c3occ(-c4ccccc4)c3cc12	2.4	-0.02
CCOC(=O)C1=C(CC)Nc2ccccc2N=C1NC(=O)c1ccc(S(=O)(=O)N(C)C)cc1	0.51	-0.26
Cc1ccc(S(=O)(=O)N(C)Cc2ccc(C(=O)NN=C(CC(C)C)CC(C)C)cc2)cc1	0.36	0.06
CN(C(=O)CSc1nnc(-c2ccc(OC(F)F)cc2)n1N)C1CCS(=O)(=O)C1 (configuration not stated)	0.2	0.46
C/C(CC(=O)Nc1cc(C)ccn1)=N\NC(=O)C(=O)Nc1cccc(C)c1	5.4*	-1.2*
CCn1c(SCC(=O)N(C)C)nc2cc(S(=O)(=O)N3CCCCC3)ccc21	0.07	-0.75
Cc1ccc(S(=O)(=O)NCCC(=O)N2CCC(C(N)=O)CC2)cc1C	0.29	-0.39
COc1ccc(C(=O)NCC(=O)Nc2ccc(-c3ccccc3)cc2)cc1	0.63	1
COc1ccc(C2(NC(C)=O)CCN(C(=O)c3cccs3)CC2)cc1	0.85	-0.1
CSc1ncccc1C(=O)OCC(=O)NCc1ccc2c(c1)OCO2	0.47	-0.04
O=C(O)C1CCCN1C(=O)C12CC3CC(CC(C3)C1)C2 (configuration not stated)	1.6	-0.86
NCCCC[C@H]1CNC(=O)C(=O)N1CCCCC1CCCCC1	0.03	1.6
Cc1cccc(C)c1NC(=O)CCCSc1nc2ccccc2s1	2.2	-0.12
COc1ccc(CCNC(=S)Nc2cccc(C)c2C)cc1	0.74	0.57
Cn1cc(C(=O)Nc2ccc(Cl)c(Cl)c2)cn1	0.04	-0.33

Next section:
SMILES	KCNQ2 enhance	KCNQ2 enhance baseline
CC(C)N1CCN(Cc2nc(-c3ccccc3)cs2)CC1CCO (configuration not stated)	0.93	-0.69
COc1ccc(C(O)P(=O)(OC(C)C)OC(C)C)cc1OC (configuration not stated)	0.5	1.4
CCOC(=O)C1(Cc2ccc(Cl)cc2)CCN(C(=O)CCc2ccncc2)CC1	0.39	0.43
O=S(=O)(Nc1ccc(-n2cccc2)cc1)c1ccc(Cl)c(Cl)c1	0.01	-1.9
CC(/C=N\Nc1nnc2c(n1)[nH]c1c(C)cccc12)=C\c1ccco1	0.69	-1.5
Cc1ccc(S(=O)(=O)N2CCC(C(=O)NCCCN3CCCC3=O)CC2)cc1C	1	0.15
COc1ccc(Cc2nc3ccc(C(=O)NCc4cc(C)no4)cc3o2)cc1	0.7	0.7
O=C(Nc1ccc(N2CCN(C(=O)c3ccco3)CC2)cc1)C(c1ccccc1)c1ccccc1	0.59	1.2
Cc1ccc(S(=O)(=O)CCC(=O)N(C)c2c(N)n(Cc3ccccc3)c(=O)[nH]c2=O)cc1	0.39	1.7
CC(Oc1ccccc1F)C(=O)NCCN1CCCCC1 (configuration not stated)	1.8	0.78
O=S(=O)(c1cccc2cccnc12)N1CCCCC1	0.57	0.8
Cc1nn(CCS(=O)(=O)c2ccc(Cl)cc2)c(C)c1Br	0.06	-0.97
CC1CN(C(=O)CSc2nnc(-c3ccccc3)o2)CC(C)O1 (configuration not stated)	0.88	0.07
CCOC(=O)NC(NS(=O)(=O)c1ccccc1)(C(=O)OCC)C(F)(F)F (configuration not stated)	0.9	-2.1
O=C(OCc1nnc(-c2ccccc2)o1)c1cccc(S(=O)(=O)N2CCOCC2)c1	0.69	0.18
COc1ccccc1C(=O)NC(=O)OCCn1c(C)cnc1[N+](=O)[O-]	1.2	0.56
CCOc1ccc(NC(=O)/C=C/c2ccccc2)c([N+](=O)[O-])c1	0.64	-1.5
O=C(Nc1cccc(F)c1)N1CCCC(CNS(=O)(=O)Cc2ccccc2)C1 (configuration not stated)	2.9	-3.2
CC(=O)c1cccc(NC(=O)/C(=C/c2ccco2)NC(=O)c2ccco2)c1	0.22	-0.62
CCn1cc(C(=O)N[C@H](C(=O)NCCO)C(C)C)c(=O)c2cc3c(cc21)OCO3	0.83	-0.1
COc1ccc(C2C(C(=O)c3ccc(C)o3)=C(O)C(=O)N2Cc2ccco2)cc1OC (configuration not stated)	2.4	-1.1
c1ccc(Oc2nc3ccccc3n3cccc23)cc1	0.3	-0.01
COc1ccc(NC(=O)Nc2ccc(Br)cn2)cc1OC	0.59	-0.47
CC(=O)c1cccc(NC(=O)COC(=O)c2ccccn2)c1	1.1	0.98
Oc1ccc[n+](/C=C\c2ccccc2)c1	0.29	0.12
SMILES	KCNQ2 enhance	KCNQ2 enhance baseline
O=C1CNC(=S)N1CCc1ccc(Cl)cc1	2.3	-1.4
O=S(=O)(CC(O)CS(=O)(=O)c1ccc(Cl)cc1)c1ccccc1 (configuration not stated)	0.4	-1.1
COc1cccc(CN2CC(C(=O)N(C)CCc3ccccc3)CCC2=O)c1 (configuration not stated)	1.5	0.99
Cc1cccc(N(CC(=O)NCCSc2nc3ccccc3s2)S(=O)(=O)c2ccccc2)c1	0.79	0.09
CCn1nc(NS(=O)(=O)c2ccc(NC(C)=O)cc2)c2cc3cc(C)ccc3nc21	0.37	-0.06
Cc1cccc(NC(=O)C2NC(=O)CC2c2ccccc2)c1C (configuration not stated)	0.99	-0.07
COc1ccc2cc(CCNC(=O)c3cccc([N+](=O)[O-])c3)c(=O)[nH]c2c1	0.13	-2.1
CCOC(=O)Cn1nc(C)c(NC(=O)COc2ccc(OC)cc2)c1C	2.1	1.5
Cc1ccc(OC(C)C(=O)N/N=C/c2ccccn2)cc1 (configuration not stated)	0.77	0.28
Cc1c(C(=O)NCc2ccoc2)oc2ccc3c(c12)C(=O)CC(C)(C)O3	0.55	0
O=C(N/N=C/c1c[nH]c2ccccc12)c1cccc([N+](=O)[O-])c1	0.03	3.7
CC(C)NC(=O)Nc1cccs1	0.02	-0.11
O=C(Nc1cccs1)Nc1ccc(F)cc1F	1.9	-0.81
C=C1C(=O)O[C@H]2[C@H]1[C@@H](O)CC(=C)[C@@H]1CC(=O)[C@@H](C)[C@H]21	0.21	1.8
O=S(=O)(c1ccc(F)cc1)N1CCc2ccccc2C1	0.01	1
O=C(NS(=O)(=O)c1ccc(Cl)cc1)c1ccccc1	0.5	-1.5
COC(C[C@H](O)[C@H](C)[C@H](O)COCc1ccccc1)OC	2.4	0.58
O=C(Nc1ccc([N+](=O)[O-])cc1)N1CCCCC1	0.07	-0.04
COc1cc(/C=N/NC(=O)CN(CCc2ccccc2)S(=O)(=O)c2ccc(NC(C)=O)cc2)cc(OC)c1OC	0.31	-1.4
CCN(CC)S(=O)(=O)c1cccc(NC(=O)CC2CCCC2)c1	2.3	2
CCOc1cccc(-c2nnc(SCC(=O)Nc3cccc(OC)c3)n2N)c1	1.4	-0.58
C/C=C\C(=O)Nc1cccc(C2=NOC3(C2)C[C@@H](C(N)=O)N(C(=O)c2ccccc2)C3)c1 (some centres not stated)	1.3	0.1
COc1ccc2nc(NC(=O)c3ccoc3C)sc2c1	0.7	-0.53
Cc1ccc2c(c1)N(CCC(=O)NCc1cccs1)C(=O)C(C)O2 (configuration not stated)	0.03	-0.22
COc1cc(OC)c(C2=Nc3ccc(Br)cc3C(c3ccccc3)N2CC(=O)NN)cc1OC (configuration not stated)	2.1	0.4
SMILES	KCNQ2 enhance	KCNQ2 enhance baseline
CCC(=O)Nc1ccc2c(c1)nc(CCN1CCN(c3ccccc3)CC1)n2C	1.7	0.33
COc1ccc2nc(NCc3cccnc3)sc2c1	0.42	0.96
O=C(NCC1CCCO1)c1ccc2c(c1)C(=O)N(C1CCCCC1)C2=O (configuration not stated)	0.09	-0.21
O=C1COc2ccc(C(=O)COC(=O)c3ccc(S(=O)(=O)C(F)F)cc3)cc2N1	0.73	-0.25
Oc1ccc2ccccc2c1CN1CCN(c2ccccc2F)CC1	13*	-3.5*
O=C(CN(C(=O)CNC(=O)c1cccs1)c1ccc(F)cc1)NC1CCCC1	0.24	0.03
O=C(CCNS(=O)(=O)c1cccs1)NCc1ccccc1	0.18	0.66
COCCNc1nc(=S)[nH]c2cc(OC)c(OC)cc12	0.4	0.14
O=C(c1cnn2c(C(F)(F)F)cc(-c3ccco3)nc12)N1CCCc2ccccc21	0.52	1.9
O=C1CC(N2CCN(c3ccccc3Cl)CC2)C(=O)N1c1ccccc1 (configuration not stated)	0.05	1.9
Cc1nc2ccccc2n1-c1nc(-c2ccco2)cc(C(F)(F)F)n1	0.02	-1
Cc1ccc(S(=O)(=O)N(C)C)cc1NC(=O)COC(=O)COc1ccc2c(c1)CCC2	0.69	0.02
CC(=O)N(C)c1ccc(NC(=O)/C=C/c2ccccc2Cl)cc1	0.42	0.21
CN1CCN(S(=O)(=O)Cc2ccc(Cl)cc2)CC1	1.7	-0.4
Cc1cccc(N2C(=O)C(O)=C(C(=O)c3cccs3)C2c2ccc(C(C)C)cc2)n1 (configuration not stated)	0.46	0.19
CS(=O)(=O)N1CCc2cc(C(=O)OCC(=O)c3ccccc3)ccc21	0.04	1.1
COc1ccc2[nH]c(=O)c(CN(Cc3nnnn3Cc3ccccc3)CC3CCCO3)cc2c1 (configuration not stated)	1.2	-0.97
COc1ccc(CNC(=O)CS(=O)Cc2nc(-c3ccc(OC)c(OC)c3)oc2C)cc1 (configuration not stated)	0.05	0.43
CC1=NN(C(=O)c2ccccc2)C(O)(c2ccc(Br)cc2)C1 (configuration not stated)	1.1	0.78
O=S(=O)(c1cc(F)ccc1F)N1CCN(c2ncccn2)CC1	0.64	-0.83
N#Cc1c(C(F)(F)F)cc(-c2ccccc2)nc1SCc1nc(N)nc(N2CCOCC2)n1	10*	4.5*
CCOC(=O)N1CCN(c2c(NCCCN(CC)CC)c(=O)c2=O)CC1	0.16	0.07
O=[N+]([O-])c1ccccc1Nc1nc(-c2cccnc2)cs1	0.04	0.38
COc1cc(C)c(C)cc1S(=O)(=O)N1CCCc2ccccc21	0.92	-1.5
Cc1cc(/C=N/NC(N)=O)c(C)n1-c1ccc(F)cc1	1.9	0.25
SMILES	KCNQ2 enhance	KCNQ2 enhance baseline
NC(=O)CCn1nc(-c2ccccc2)c2ccccc2c1=O	1	0.02
Cc1ccc(C(=O)OC(C)C(=O)NCc2ccc3c(c2)OCO3)cc1S(=O)(=O)N1CCOCC1 (configuration not stated)	0.05	-2.2
CC(=O)N1CCc2cc(S(=O)(=O)NC(C(=O)NCc3ccccc3)C(C)C)ccc21 (configuration not stated)	0.69	-0.46
CSCC[C@H](NC(=O)N1C[C@H]2C[C@@H](C1)c1cccc(=O)n1C2)C(=O)Nc1ccc(NC(C)=O)cc1	0.68	-2.6
COc1ccccc1Cn1c(=O)[nH]c2cccnc21	0.02	-0.6
O=C(NCc1ccc2c(c1)OCO2)C(c1ccco1)N(C(=O)c1csnn1)c1ccccc1 (configuration not stated)	1.1	0.07
CC(C)(C)OC(=O)N1CCN(C(=O)Cn2cc(CCO)nn2)CC1	0.32	1
CCCCN(C)CCNC(=O)C1CCN(S(=O)(=O)c2cccc3nsnc23)CC1	1.2	0.06
CCOC(=O)c1ccc(N2C(=O)C3ON(c4ccccc4)C(c4ccco4)C3C2=O)cc1 (configuration not stated)	0.05	0.41
CCCn1nnc(NC(=S)NC(=O)C(C)(C)C)n1	0.64	0.9
CCCCn1c(SCC(=O)OCC)nnc1-c1ccoc1C	0.74	-1
COCCCn1c(SCC(=O)N2CCOCC2)nc2ccccc2c1=O	2.7	-0.17

Screening data: PubChem, Johns Hopkins Ion Channel Center
